# Screens deposited in PubChem by National Center for Advancing Translational Sciences (NCATS).
# Cruzain inh noDet = qHTS Assay for Promiscuous and Specific Inhibitors of Cruzain (without detergent). Cruzipain (Trypanosoma cruzi), P25779. purified cruzain, Z-FR-AMC fluorescence, no detergent. hit rate 2.3% among 200,000. Potency, µM, for inactives: max response, negative = inhibition, usual class: inhibitors; active means well fitted curve in the direction sought with a large enough effect; inconclusive means small, poorly fitted or top-dose-only effect, or another doubt; inactive means no such curve, though single readings can be large; an effect the other way counts as inactive or inconclusive;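 further: plate controls were enzyme without inhibitor for no effect and buffer without enzyme for full effect; nearly all actives have a fitted effect of over 40% in size; top concentration of the series not given in the record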
# Target sequence (P25779 123-467 limits assumed): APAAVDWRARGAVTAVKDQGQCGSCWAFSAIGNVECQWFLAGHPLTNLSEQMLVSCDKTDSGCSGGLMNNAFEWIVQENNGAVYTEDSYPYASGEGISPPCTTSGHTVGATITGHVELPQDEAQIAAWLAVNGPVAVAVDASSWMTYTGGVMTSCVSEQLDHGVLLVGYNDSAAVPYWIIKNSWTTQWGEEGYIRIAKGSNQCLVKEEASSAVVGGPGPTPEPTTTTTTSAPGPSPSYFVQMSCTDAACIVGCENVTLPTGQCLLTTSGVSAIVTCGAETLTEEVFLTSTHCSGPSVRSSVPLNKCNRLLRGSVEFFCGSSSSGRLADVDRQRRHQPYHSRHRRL
#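 Detergent-free condition (0.00005% Triton X-100) in acetate buffer pH 5.5 with DTT. 1.5 nM enzyme and compound were pre-mixed 15 min, then 2 uM Z-FR-AMC substrate added; reaction progress from fluorescence change between first and third reads (60 s).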
# Cruzain Triton = qHTS Assay for Promiscuous and Specific Inhibitors of Cruzain (with detergent) | Potency, µM, inactives show max response, negative = inhibition, actives largely listed as inhibitors | hit rate 0.43% among 200,000 | purified cruzain, Z-FR-AMC fluorescence, 0.01% Triton | Cruzipain (Trypanosoma cruzi), P25779; active means well fitted curve in the direction sought with a large enough effect; inconclusive means small, poorly fitted or top-dose-only effect, or another doubt; inactive means no such curve, though single readings can be large; an effect the other way counts as inactive or inconclusive;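 further: plate controls were neutral wells for no effect and buffer without enzyme for full effect; nearly all actives have a fitted effect of over 40% in size; top concentration of the series not given in the record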
#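 Compounds were screened in titration against cruzain (1.5 nM) with 0.01% Triton X-100 to counter colloidal aggregation. Activity was the AMC fluorescence increase over 60 s after adding 2 uM Z-FR-AMC at pH 5.5.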
# NS1 function inh = qHTS Assay for Inhibitors of Influenza NS1 Protein Function | hit rate 0.4% among 270,000 | AID 2326, 2010 | Potency, µM (top dose mostly 46.1 µM), without a hit: at the highest dose activity, positive = more growth | S. cerevisiae slowed by influenza A NS1, growth recovery by OD600; further: actives are rising curves; nearly all actives have a fitted effect of over 50% in size
#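 Read-out: OD600 growth recovery of NS1-expressing budding yeast. Cells grown overnight at 30C in -URA glucose medium, washed, resuspended and diluted 1:100 in 2% galactose assay medium, pH 6.0. Same strain lacking NS1 served as positive control.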
# RE007 growth inh = qHTS Assay for Inhibitors of the HIV-1 protein Vpr | hit rate 0.21% among 360,000 | S. pombe RE007 Vpr strain, BacTiter-Glo ATP luminescence, 24 h; control for the full effect not named in the record | Potency, µM (titrated, usually from 92.2 µM), without a hit: at the top dose activity change, negative = less growth; active = well fitted falling curve with a large enough effect; inconclusive = small, poorly fitted or top-dose-only effect; inactive = no such curve, though single readings can be large or run the other way;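 further: on the % scale 0 is the no-effect control and ±100 the full control effect; nearly all actives have a fitted effect of over 50% in size; the assay follows cell death caused by Vpr and the record does not say whether a fall means rescue or toxicity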
#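 Fission yeast strain RE007, carrying one chromosomally integrated HIV-1 vpr copy, was seeded at OD 0.01 in PMG+AL medium with 23 nL pinned compound. After 24 h at 30 °C and 99% humidity, viability was read by BacTiter-Glo luminescence.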
# LASV entry inh = qHTS for Inhibitors of binding or entry into cells for Lassa Virus | Potency, µM (titrated, usually from 37.9 µM), inactives show top-dose activity change, negative = inhibition, actives largely listed as inhibitors | hit rate 1.2% among 300,000 | Lassa virus pseudotype entry inhibition, cell reporter; control for the full effect not named in the record; active means well fitted inhibition curve with a large enough effect; inconclusive means small, poorly fitted or top-dose-only effect, or effect the other way; inactive means flat fitted curve, though single readings scatter; tested in HEK293 cells; further: on the % scale 0 is the no-effect control and ±100 the full control effect; nearly all actives have a fitted effect of over 50% in size; luciferase read-out
# StopGo reporter = High Throughput Screening for Foot and Mouth Disease Virus Antivirals; human cells with a luciferase reporter of 2A StopGo recoding; control for the full effect not named in the record; Potency, µM (series often up to 57.9 µM), inactives show at the top dose signal change, negative = less light; hit rate 1.2% among 410,000; active = well fitted falling curve with a large enough effect; inconclusive = small, poorly fitted or top-dose-only effect; inactive = no such curve, though single readings can be large or run the other way; tested in HEK293T cells; further: on the % scale 0 is the no-effect control and ±100 the full control effect; nearly all actives have a fitted effect of over 45% in size; luciferase light after 4 h
# SARS PLP yeast = qHTS of Yeast-based Assay for SARS-CoV PLP. Potency, µM (doses to about 32.9 µM), without a hit: top-dose activity, positive = growth rescue. AID 485353, 2010. hit rate 0.19% among 330,000. S. cerevisiae expressing SARS-CoV PLpro, growth rescue; control for the full effect not named in the record; further: 0% is about no effect; nearly all actives have a fitted effect of over 55% in size; growth read by luminescence after 48 h
# Marburg entry inh = qHTS for inhibitors of binding or entry into cells for Marburg Virus. Potency, µM (highest dose often 37.8 µM), without a hit: top-dose activity change, negative = inhibition, hits mostly inhibitors. hit rate 1.8% among 300,000. Marburg virus pseudotyped entry inhibition, cell reporter; control for the full effect not named in the record; about a third of the inactives were read at about 46 µM; active = well fitted inhibition curve with a large enough effect; inconclusive = small, poorly fitted or top-dose-only effect, or effect the other way; inactive = flat fitted curve, though single readings scatter; tested in HEK293 cells; about a fifth of its hits are not listed in these tables; further: on the % scale 0 is the no-effect control and ±100 the full control effect; luciferase read-out
# * = called active by the depositor; u = inconclusive; x = no result given; & = joins results of further samples; [ ] = dose if it differs, or a comment. Unless noted, the call rests on the fitted dose curve; in most records, active means well fitted rising curve with a large enough effect; inconclusive means small, poorly fitted or top-dose-only effect; inactive means no such curve, though single readings can be large or run the other way. Potency means the concentration at half of the fitted maximal effect. Compounds as they come. Share with any hit: about 4.8%.
# The line under a structure holds: Marburg entry inh, RE007 growth inh, Cruzain inh noDet, LASV entry inh, Cruzain Triton, NS1 function inh, SARS PLP yeast, StopGo reporter
> CC1CC(=O)Nc2ccccc2N1C(=O)CN1CCN(c2ccccc2)CC1 (stereo not drawn)
    -18%[46.1 µM], -4%, x, 2%, x, x, 3%, 2%
> O=C(N/N=C\c1ccc2c(c1)OCO2)c1ccco1
    u, -27%, 0%, u, -7.9%, -12%, -32%, -3%
> CC(C)(CNC(=O)CCNC(=O)c1ccc(Br)cc1)N1CCOCC1
    u, -8%, x, 2%, x, x, -2%, -20%
> COc1ccc(/C(N)=N/OC(=O)C2CCCCC2)cc1OC
    x, -27%, x, x, x, -40%, -6%, 48%[activator]
> CCn1nnnc1SCC(=O)c1ccc2c(c1)OCCO2
    0%, -7%, -1%, 10%, 0.2%, -2%, 3%, 44%[activator]
> COc1ccccc1C(=O)Nc1cccc(NC(=O)c2ccccc2OC)n1
    u, -11%, x, u, x, -5%, -1%, -10%
> CCN1C(=O)C2CCCCN2c2ccc(C(=O)NCCOC)cc21 (stereo not drawn)
    x, 3%, x, x, x, 3%, 0%, 8%
> CNC(=O)c1c(NC(=O)CS(=O)(=O)c2ccc(F)cc2)sc(C)c1C
    -11%, -22%, x, -26%, x, x, 12%, -21%
> CCOC(=O)Nc1ccc2c(COC(=O)CNS(=O)(=O)c3ccc(NC(C)=O)cc3)cc(=O)oc2c1
    u, -7%, x, -4%[46.1 µM], x, 8%, -1%, -1%
> Cc1ccc(NC(=O)CN(C)S(=O)(=O)c2ccc(Br)s2)cc1F
    1%&-35%, -15%, -2%, 4%&-4%, -8.9%, -19%, 17%, 14%
> CCn1cc2nc(SCC(=O)Nc3ccc(OC)cc3OC)n(Cc3ccc(OC)cc3)c(=O)c2n1
    u, 8%, x, -5%[46.1 µM], x, 2%, -1%, 7%
> COc1ccc(CNC(=O)CCc2cn(C)c3ccccc23)cc1
    x, x, -2%, 9%[46.1 µM], -2.9%, x, x, 8%
> Cc1cc(Br)ccc1SCC(=O)OCC(=O)NCc1ccc2c(c1)OCO2
    -2%, 0%, -4%, 10%, -6.6%, -39%, 10%, -11%
> COC(=O)c1ccc2c(=O)n(Cc3ccco3)c(SCC(=O)Nc3ccccc3Cl)nc2c1
    -23%, 5%, -24%, -7%, -4.8%, 10%, 2%, 9%
> COc1cc(C(=O)COC(=O)c2cnc(C)cn2)ccc1OC(F)F
    19%, 19%, x, -21%, x, 0%, 4%, 2%
> COc1cc(OC)c(NC(=O)c2nnn(Cc3ccc(C)cc3)c2N)cc1Cl
    u, x, -19%, 9%[46.1 µM], -3.3%, x, x, 3%
> O=C(CN1C(=O)COc2ccc(S(=O)(=O)N3CCCCCC3)cc21)NCCc1ccccc1
    x, x, 6%, -3%[46.1 µM], -1.8%, x, x, 7%
> COc1cc(NS(=O)(=O)c2ccc3[nH]c4c(c3c2)CCCCCC4)cc(OC)c1
    x, x, -28%, u, -8.6%, x, x, 47%[activator]
> O=C(NC1CCN(Cc2ccccc2)C1)c1cc(COc2ccc(F)cc2F)on1 (stereo not drawn)
    x, -6%, x, x, x, 3%, 0%, -10%
> COc1ccc(NS(=O)(=O)c2cccc(C(=O)NC3CCN(Cc4ccccc4)CC3)c2)cc1
    u, -4%, x, u, x, 1%, -16%, -25%
> CCCNC(=O)COC(=O)c1ccc(S(=O)(=O)N2CCCC2)cc1
    14%[46.1 µM], 9%, x, -4%[46.1 µM], x, x, -4%, -5%
> O=C(c1ccc([N+](=O)[O-])cc1)N1CCOC12CCN(c1ncc(C(F)(F)F)cc1Cl)CC2
    -3%, 9%, -1%, -2%, 4.0%, 1%, x, u
> COC(=O)CSc1nc(NCc2ccccc2)nc(N(C)C)n1
    u, 6%, x, -13%[46.1 µM], x, x, -1%, -2%
> COc1ccc(Cl)cc1NC(=S)N1CCN(C(=O)c2ccco2)CC1
    -11%, -8%, -1%, -18%, 1.9%, -9%, -11%, 6%
> CCC(=O)Nc1ccc(NC(=O)c2cc3ccccc3o2)c(OC)c1
    u, 11%, x, 6%[46.1 µM], x, 19%, -3%, 1%
> O=C(O)c1cc(C(=O)C2CC2)c[nH]1
    5%[46.1 µM], 3%, x, -1%, x, 4%, 2%, -10%
> O=C(O)CC(NC(=O)/C(=C/c1ccccc1)NC(=O)c1ccccc1)c1ccccc1 (stereo not drawn)
    u, 4%, x, 11%[46.1 µM], x, 4%, 22%, -17%
> COC(=O)C1CCN(Cc2cn(Cc3ccccc3)nc2-c2cc3ccccc3o2)CC1
    x, 0%, x, x, x, -1%, -1%, -1%
> Cc1cccc(N(CC(=O)NCCc2ccccc2)C(=O)CCC(=O)Nc2ccccn2)c1C
    15%[46.1 µM], -12%, x, -16%, x, -17%, 0%, -20%
> COc1cccc(C(c2sc3ncnn3c2O)N2CCN(C(=O)c3ccco3)CC2)c1 (stereo not drawn)
    x, 14%, -2%, x, -2.0%, 12%, 14%, 16%
> CC(C)C(c1nnnn1C1CCCCC1)N1CCc2ccccc2C1 (stereo not drawn)
    -1%, -4%, u, -1%, -2.7%, -14%, -3%, x
> CC(=O)c1cccc(S(=O)(=O)NC2CCSc3ccccc32)c1 (stereo not drawn)
    -12%[46.1 µM], 17%, x, -6%, x, 17%, -1%, 24%
> O=C(Nc1cc(Sc2nc3ccccc3s2)cc([N+](=O)[O-])c1)c1ccccc1F
    u, -5%, u, u, -0.9%, 10%, u, -11%
> CN(C)c1c([N+](=O)[O-])cc(N2C(=O)C=CC2=O)cc1[N+](=O)[O-]
    -2%, 27%, x, 7%, x, x, x, u
> CC(=O)c1ccc(OCc2cc(C(=O)N3CCOCC3)no2)cc1
    u, -1%, x, u, x, -6%, 5%, 36%[activator]
> COC(=O)/C(=C/c1ccc(OC)cc1)NC(=O)c1ccco1
    15%, 14%, 0%, -4%, 5.1%, 14%, 3%, -19%
> CCC(=NCCN1CCCCC1)c1c(O)n(C)c(=O)n(C)c1=O
    -7%, 0%, -4%, 13%, -2.0%, -2%, 1%, -1%
> Cc1ccc(-c2csc3nc(C)n(N)c(=O)c23)o1
    15%, -11%, -5%, 29%, -1.3%, -1%, 9%, 69%[activator]
> COc1ccc(NS(=O)(=O)c2cc(-c3cnc(C4CC4)o3)ccc2C)cc1
    x, -11%, x, x, x, -3%, -1%, 37%[activator]
> O=C(COC(=O)/C=C/c1ccc(S(=O)(=O)N2CCOCC2)cc1)Nc1ccccc1F
    1%, -1%, x, -1%, x, x, 3%, -11%
> OCCCc1ccc(O)c(O)c1
    x, -3%, x, x, x, 3%, 1%, -23%
> Cc1ccc(N=Cc2ccc[nH]2)c(O)c1
    15%, -16%, -22%, -4%, 4.8%, -10%, -17%, 87%[activator]
> COc1ccc(CNC(=O)CN(C(=O)CCC(=O)Nc2ccccn2)c2cccc(C)c2C)cc1
    -20%[46.1 µM], -5%, x, u, x, -20%, -3%, -1%
> COC(=O)c1c(C)oc(C)c1S(=O)(=O)NC(C)(C)C
    -6%[46.1 µM], 4%, x, 7%, x, 4%, 0%, -1%
> CC(C)c1ccc(NC(=O)Cc2cn(C)c3ccccc23)cc1
    15%[46.1 µM], -17%, x, u, x, x, -3%, 13%
> O=c1c2c(-c3ccc([N+](=O)[O-])cc3)csc2nc2n1CCC2
    -2%, -5%, -8%, 6%, -21%, 3%, -9%, -6%
> CC(=O)Nc1ccccc1Oc1ccccc1
    8%[46.1 µM], -11%, x, 2%[46.1 µM], x, -5%, 0%, -24%
> O=C(CN1CCOCC1)Nc1nc2ccc(F)cc2s1
    0%, 5%, -18%, 27%, 2.6%, -4%, 10%, 47%[activator]
> Cc1cccc(NC(=O)COC(=O)Cc2c[nH]c3ccccc23)c1C
    u, 4%, 0%, 4%, -5.3%, -14%, -22%, -18%
> CCOC(=O)c1cccc(NS(=O)(=O)c2cc(-c3cnc(C)o3)ccc2OC)c1
    x, x, 1%, -30%[46.1 µM], -9.4%, x, x, 24%
> COc1ccc(-c2noc(CN3CCC(Cc4ccccc4)CC3)n2)cc1
    -5%&-1%, 4%, 11%, 7%, -3.5%, -22%, -6%, 5%
> COc1ccc(N2CCCn3c2nc2c3c(=O)n(Cc3ccccc3F)c(=O)n2C)cc1
    0%, x, -2%, x, 3.7%, -14%, -10%, x
> CN(Cc1ccccc1Cl)C(=O)c1cnccc1C(F)(F)F
    -5%, 1%, x, -2%, x, 0%, 1%, -9%

# Another view of part of the listing above.
Molecule | Marburg entry inh | RE007 growth inh | Cruzain inh noDet | LASV entry inh | Cruzain Triton | NS1 function inh | SARS PLP yeast | StopGo reporter
O=C(COC(=O)/C=C/c1ccc(S(=O)(=O)N2CCOCC2)cc1)Nc1ccccc1F | 1% | -1% | x | -1% | x | x | 3% | -11%
OCCCc1ccc(O)c(O)c1 | x | -3% | x | x | x | 3% | 1% | -23%
Cc1ccc(N=Cc2ccc[nH]2)c(O)c1 | 15% | -16% | -22% | -4% | 4.8% | -10% | -17% | 87%[activator]
COc1ccc(CNC(=O)CN(C(=O)CCC(=O)Nc2ccccn2)c2cccc(C)c2C)cc1 | -20%[46.1 µM] | -5% | x | u | x | -20% | -3% | -1%
COC(=O)c1c(C)oc(C)c1S(=O)(=O)NC(C)(C)C | -6%[46.1 µM] | 4% | x | 7% | x | 4% | 0% | -1%
CC(C)c1ccc(NC(=O)Cc2cn(C)c3ccccc23)cc1 | 15%[46.1 µM] | -17% | x | u | x | x | -3% | 13%
